Bioassay records from PubChem BioAssay.
AID504770 – growth inhibitors of E. coli YBA685 in a screen for V. cholerae RctB (chromosome II replication) inhibitors | AID 504770 | E. coli YBA685 rctB-dependent plasmid, OD600 growth, 3 h; stronger effect = lower value | z-score (no concentration beside the values) | 0.27% of 130,000 active;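 active = z-score under -2 on both plates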;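 note: wells of about 30 µL received 100 nL stock; score is relative to mean and SD of the test wells; the first replicate is given; strong numbers were not always called active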
Ba CapD inh – inhibitors of Bacillus anthracis CapD enzyme; z-score (concentration not given with the values); purified CapD enzyme, fluorescence intensity read-out; stronger effect = lower value; some hits fall short of the stated cut; 0.23% of 140,000 active; AID 492967;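 active = z-score under -4 in either of two replicates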;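 note: stock transfer was 100 nL into about 40 µL; score is relative to mean and spread of the plate; one replicate is shown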
* hit, by the source's call; . = no result given; & = joins results of further samples.

The first 5 entries, to show the layout:
SMILES	AID504770	Ba CapD inh
Cc1cc(Nc2ccc(S(=O)(=O)N3CCOCC3)cc2)c2ccc(C(F)(F)F)cc2n1	1.3	.
COc1cc(C2C3=C(CC(C)(C)CC3=O)Nc3ccccc3N2C(=O)Cc2ccccc2)cc(OC)c1OC (stereo not given)	.	2.1
N#C/C(=C1\CCCN1)c1ccccn1	-0.05	-1.4
Cc1ccc(-n2nc3c(c2NC(=O)c2ccc(S(=O)(=O)N4CCCC4)cc2)CS(=O)(=O)C3)cc1	.	-0.64
NC(N)=NS(=O)(=O)c1ccc(N/C=C2/CCc3ccccc3C2=O)cc1	-0.25	-0.33

The list itself (from the top)
SMILES	AID504770	Ba CapD inh
Cc1cc(Nc2ccc(S(=O)(=O)N3CCOCC3)cc2)c2ccc(C(F)(F)F)cc2n1	1.3	.
COc1cc(C2C3=C(CC(C)(C)CC3=O)Nc3ccccc3N2C(=O)Cc2ccccc2)cc(OC)c1OC (stereo not given)	.	2.1
N#C/C(=C1\CCCN1)c1ccccn1	-0.05	-1.4
Cc1ccc(-n2nc3c(c2NC(=O)c2ccc(S(=O)(=O)N4CCCC4)cc2)CS(=O)(=O)C3)cc1	.	-0.64
NC(N)=NS(=O)(=O)c1ccc(N/C=C2/CCc3ccccc3C2=O)cc1	-0.25	-0.33
O=C1c2ccccc2C(=O)N1CC(O)COC1CCCCC1 (stereo not given)	-0.35	.
Cn1c(-c2cc(Br)cs2)nc(=O)c2ccccc21	-0.5	-0.015
O=C(CCCCn1c(=O)[nH]c2ccsc2c1=O)NCc1ccccc1	0.05	-0.36
CSc1nc2c(cc1C#N)CCC2	0.1	2.1
CCC(Sc1nc2ccccc2c(=O)n1Cc1ccccc1OC)C(=O)NCc1cccnc1 (stereo not given)	-0.1	-0.99
CCC(=O)Nc1sccc1C#N	-1.1	-0.38
O=C(NCc1ccccc1)C(Cc1ccccc1)NS(=O)(=O)c1ccc(Br)cc1 (stereo not given)	0.2	15
COc1ccc(Cl)cc1C(=O)NCCc1ccc(S(=O)(=O)NC(=O)NC2CCCCC2)cc1	-0.7	-0.24&-0.94
COc1ccccc1NC(=O)CC1S/C(=N\N=C(/C)c2ccccc2)NC1=O (stereo not given)	1.4	.
O=C(CCc1c[nH]c2ccccc12)OCC(=O)c1cccc(Br)c1	0.95	0.67
Cc1ccc(S(=O)(=O)N2CCCC2C(=O)n2nc(C)cc2C)cc1 (stereo not given)	-1	-0.43
COCCN(Cc1cc2ccc(C)cc2[nH]c1=O)C(=O)c1ccccc1	0.45	.
COC(=O)c1sccc1OCc1cc(-c2ccc(Cl)c(Cl)c2)on1	.	-0.21
COc1ccc(/C=C2\N=C(c3ccc(Cl)cc3)N(c3ccc(C)cc3)C2=O)cc1OC	.	-0.1
CCN1C(=O)C(=Cc2ccc(N3CCCC3)cc2)C(=O)N(CC)C1=S	1.7	-0.17

Compounds above that have a Cl atom (3):
SMILES	AID504770	Ba CapD inh
COc1ccc(Cl)cc1C(=O)NCCc1ccc(S(=O)(=O)NC(=O)NC2CCCCC2)cc1	-0.7	-0.24&-0.94
COC(=O)c1sccc1OCc1cc(-c2ccc(Cl)c(Cl)c2)on1	.	-0.21
COc1ccc(/C=C2\N=C(c3ccc(Cl)cc3)N(c3ccc(C)cc3)C2=O)cc1OC	.	-0.1

New compounds follow:
SMILES	AID504770	Ba CapD inh
COc1ccc(C2CC(=O)C3=C(C2)Nc2ccccc2N(C(=O)C(F)(F)F)C3c2cccs2)cc1 (stereo not given)	.	0.005
c1ccc(CSc2ncnc3ccccc23)cc1	-0.2	-0.22
N#CCCn1cc(F)c(N)nc1=O	-1.5	-0.03
CC(C)(C)c1cc2c3c(cc(C(C)(C)C)cc3c1)CC2	.	-0.41
CCCc1ccc(OC(=O)c2ccc(O)cc2Cl)cc1	0.6	0.23
CN(NC1OC(=O)c2ccccc21)c1ncc(C(F)(F)F)cc1Cl (stereo not given)	0.85	-0.075
Cc1nc(Cc2n[nH]c(=S)o2)cs1	-0.65	.
CCc1nc(Cl)c(C#N)c2c1CCCC2	0.6	-0.3
C=CCN1C(=O)CSC1=Nc1ccc(NC(C)=O)cc1	-0.9	.
CCCCOP(=O)(OCCCC)C(Nc1ccc(C(=O)O)cc1)c1ccccc1O (stereo not given)	.	0.04
CCc1ccc(NC(=S)NNC(C)(C)C)cc1	-0.75	0.92
CCOC(=O)c1cnc2c(c(C3CC3)nn2C)c1N1CCOCC1	1.8	-1
CCSC1=N/C(=C\c2ccc(C(=O)O)cc2)C(=O)S1	-0.65	-0.29
COC(=O)c1cc(=O)n2c(c1C(=O)c1ccc(Cl)cc1)SCC2	-0.5	-1.5
O=c1c2ccccc2c(/C=N/NS(=O)(=O)c2ccccc2)c(O)n1-c1ccccn1	0.65	.
CN(C(=O)Nc1ccccc1)C1CCCCC1	0.1	-0.76
CCCc1cc(=O)n2nc(N3CCC(C(=O)NCC)CC3)sc2n1	0.35	-1.6
O=C(c1ccccc1)n1sc(=O)c2ccccc21	-0.55	.
O=c1c2ccccc2nc(SCc2ccccc2)n1CCCO	-1.1	.
C1CNC(C23CC4CC(CC(C4)C2)C3)=N1	-0.8	.
Nc1nnnn1CC(=O)N(Cc1ccco1)C1(C(=O)Nc2ccccc2)CCCCC1	-0.3	0
O=C(CCS(=O)(=O)Cc1ccccc1)NCc1ccc2c(c1)OCO2	1.8	.
O=C(OCc1ccccc1)C(Cc1c[nH]c2ccccc12)NS(=O)(=O)c1ccccc1F (stereo not given)	.	-0.06
C#CC(CC)(CC)NC(=O)c1ccc(Cl)cc1	-0.65	.
CN(C)C(CNC(=O)c1n[nH]c(=O)c2ccccc12)c1ccccc1 (stereo not given)	-0.05	.
CC(C)N(Cc1nc2ccccc2c(=O)[nH]1)C(=O)Cc1ccc(S(=O)(=O)N2CCOCC2)s1	-0.1	.
COc1ccc(CN=Cc2cc(OC)c(OC)c(OC)c2)cc1	.	0.08
Cc1ccc(S(=O)(=O)NC2CC3CCC2C3)cc1[N+](=O)[O-] (stereo not given)	.	-0.45
NC(=O)c1cc(Cl)nc2ccccc12	-0.5	.
O=C(OCc1cc(-c2ccccc2Cl)on1)c1ccc(Cl)cc1Cl	.	-0.3
O=C(Nc1ccc(S(=O)(=O)NCCc2ccccc2)cc1)C1c2ccccc2Oc2ccccc21	0.7	22
CC1CCN(CC(O)CN2c3ccccc3Sc3ccccc32)CC1 (stereo not given)	0.35	0.24
COc1cc(C2CC(=O)N(C)c3ccccc3S2)cc(OC)c1OC (stereo not given)	-0.15	-0.63
Cc1ccc(CS(=O)(=O)c2cccs2)cc1	0.95	-0.04
Cc1ccc(N=c2scc3n2CCC3)cc1	-1	-0.61
C/S(=N\S(=O)(=O)c1cccc2nsnc12)c1ncccc1C(F)(F)F (stereo not given)	1.1	-0.32
COc1ccc(C2C(C#N)=C(N)OC3=C2C(=O)CC(C)(C)C3)cc1COc1ccccc1[N+](=O)[O-] (stereo not given)	.	-0.41
CC1=C(C(=O)Nc2ccccc2)C(c2c(F)cccc2Cl)NC(=S)N1 (stereo not given)	.	-0.3
CC(=O)N1c2ccccc2C(CSc2nnc(-c3ccccc3)o2)=CC1(C)C	2	-0.31
CCCCn1nc(C(=O)N(C)Cc2cc(Br)ccc2OC)ccc1=O	0.4	.
COc1ccc(CNC(=O)C2CCCCC2C(=O)N2CCc3ccccc32)cc1OC (stereo not given)	1.1	.
Cc1ccc(S(=O)(=O)N2CCC(C(N)=O)CC2)cc1C	1.3	-0.41
COc1ccc(NC(=O)c2sc3nc4c(c(-c5ccco5)c3c2N)CCCCC4)cc1	.	2.4
Cc1cc2c(cc3c(SCC(=O)Nc4ccc(Cl)cc4F)nnc(C)n32)o1	-0.6	0.17
O=C(N1CCCCC1)C1(S(=O)(=O)c2ccc(Cl)cc2)CC1	-0.1	0.21
O=C(N/N=C/c1ccc2c(c1)Cc1ccccc1-2)c1ccc([N+](=O)[O-])o1	.	-0.74
COc1cccc(C2OC(=O)c3ccccc3N2C(C)=O)c1OC(C)=O (stereo not given)	0.1	-0.085
N[C@@H](CCC(=O)N[C@@H](CS)C(=O)NCC(=O)O)C(=O)O	0.8	0.085
C=CCSc1snnc1-c1ccc(Cl)cc1	-1.2	-0.78
FC(F)(F)c1nc(N2CCCC2)nc2c1CCCCC2	-0.6	4.7
N#Cc1ccsc1NC(=O)CCN1CCN(S(=O)(=O)c2ccc3c(c2)OCCCO3)CC1	-0.25	.
COc1ccc(S(=O)(=O)c2ccc(OC)cc2)cc1	-0.6	-0.42
CC1CC(NC(=O)CC#N)CC(C)(C)C1 (stereo not given)	.	0.08
Cc1nc(-c2cn[nH]c2-c2ccc(O)c(C)c2O)cs1	-0.55	0.055
CCOC(=O)c1[nH]c(C)c(C(=O)N(Cc2ccccc2)C(C)C)c1C	-0.55	.
COc1ccc(-c2nnc(Oc3ccc(NC(C)=O)cc3)c3ccccc23)cc1	.	0.13
O=C(CN1CCN(S(=O)(=O)c2ccc(Cl)cc2)CC1)N(C1CCCCC1)C1CCS(=O)(=O)C1 (stereo not given)	1.4	.
CCOC(=O)C1=C(C)N=c2s/c(=C\c3cccnc3)c(=O)n2C1c1c(OC)ccc2ccc(OC)cc12 (stereo not given)	.	0.72
Nc1cccc2cccc(C(=O)O)c12	-0.8	-0.14
COc1ccccc1N1CCN(C(=O)OCCN2CCN(Cc3cc(OC)c4c(c3)OCO4)CC2)CC1	.	-0.23

New compounds follow:
SMILES	AID504770	Ba CapD inh
COc1ccc(-c2csc(NC(=O)C3COc4ccccc4O3)n2)cc1 (stereo not given)	-0.6	-0.24
NC(N)=NC(N)=NCCc1ccccc1	.	-0.76
Cc1onc(NC(=O)c2ccc([N+](=O)[O-])o2)c1Br	.	-0.75
O=C(/C=C/c1cccc2ccccc12)Nc1nccs1	1.6	2.8
COCCn1c(C)cc(C(=O)COC(=O)c2cncc(Br)c2)c1C	-0.55	.
Cc1cccn2c(=O)c3cc(C(=O)N4c5ccccc5CC4C)n(C)c3nc12 (stereo not given)	-0.45	-1.5
CCOC(=O)c1c(C)[nH]c2c1cc(O)c1ccccc12	0.8	.
CCC(=O)Nc1ccc2nc(SCC(=O)Nc3c(C)n(C)n(-c4ccccc4)c3=O)sc2c1	.	0.28
O=C1c2ccccc2C(=O)N1OCCOCCON1C(=O)c2ccccc2C1=O	-0.55	.
O=C1NC(=Nc2ccc(O)cc2)S/C1=C\c1ccc(Cl)cc1Cl	-0.95	-1.1
CC1=C(C(=O)NCCC(C)C)C2(CCC(C)CC2)OC1=O (stereo not given)	0.85	-2.1
Cc1noc(/C=C/c2ccco2)c1S(=O)(=O)N1CCC(C(=O)N2c3ccccc3CC2C)CC1 (stereo not given)	-0.15	0.23
O=C(NCC1CCCN1S(=O)(=O)c1ccccc1)c1ccccc1 (stereo not given)	-0.25	.
Cc1cc(C(=O)COC(=O)c2ccccc2)c(C)n1-c1nccs1	-0.2	.
COc1cccc(C2C3=C(CC(C)(C)CC3=O)Nc3cc4c(cc32)OCO4)c1 (stereo not given)	-0.45	72
COc1ccc(-c2csc(=Nc3ccccc3)n2C)cc1	0	-0.08
O=C(Nc1ccc2snnc2c1)NC1CCCC1	-0.8	2.3
CNC(=O)C1CCN(c2ccc(S(C)(=O)=O)cc2-n2cccc2)CC1	.	-0.36
CN=C1SC(CC(N)=O)C(=O)N1C (stereo not given)	.	0.22
c1ccc(C2=NC(c3ccccc3)(c3ccccc3)c3ccccc3N2)cc1	.	6.2

A second format for some results above.
Molecule,AID504770,Ba CapD inh
O=C(NCC1CCCN1S(=O)(=O)c1ccccc1)c1ccccc1 (stereo not given),-0.25,.
COc1ccc(-c2csc(NC(=O)C3COc4ccccc4O3)n2)cc1 (stereo not given),-0.6,-0.24
c1ccc(C2=NC(c3ccccc3)(c3ccccc3)c3ccccc3N2)cc1,.,6.2
CCOC(=O)c1c(C)[nH]c2c1cc(O)c1ccccc12,0.8,.

Next section
SMILES	AID504770	Ba CapD inh
COC(=O)COc1cc(C)cc2oc(=O)c3c(c12)CCCC3	.	6.8
O=C1NC(=S)NC(=O)C1=Cc1ccc(O)c(O)c1	.	-3
Cc1cc(C)c(C#N)c(SCC(=O)N2CCCCC2)n1	0.95	-0.09
Clc1ccc(C=Nc2cc(Cl)cc(Cl)c2)cc1	.	-0.45
CC(C)(C)NC(=O)Nc1cccc2ccccc12	-0.45	39
COc1ccc(CCNC(=O)c2ccccc2N)cc1OC	.	125
Nc1c(C(=O)c2ccc(Br)s2)oc2ccccc12	.	-0.3
COc1cc(CC(=O)OCC(=O)NC2CCCCC2C)cc(OC)c1OC (stereo not given)	-0.05	.
Cc1cc(=O)oc2cc(OC(=O)c3cc(S(=O)(=O)N(C)C)ccc3N3CCCC3)ccc12	-1.2	.
COc1cc(CN2CCCN(Cc3cc(OC)c(OC)c(OC)c3)C2c2cc(Br)ccc2O)cc(OC)c1OC	.	0.3
CN(CCO)c1ncnc2c1sc1nc3c(cc12)COC(C)(C)C3	-1	.
Cc1ccc(-n2c(SCC(=O)C(C)(C)C)nc3ccc(C)cc3c2=O)cc1	.	-0.47
COc1ccc2nc(NC(=O)C3CCCN(S(=O)(=O)c4cccc5nonc45)C3)sc2c1 (stereo not given)	-0.25	0.74
Cc1cccc(CCNC(=O)c2nn(C)c3c2COc2ccccc2-3)c1	1.3	1.6
Cc1ncn2cc(-c3ccc(Cl)cc3Cl)[nH]c(=O)c12	-0.6	1.3
CC(=O)C1=NN(c2ccc(C)cc2)C2(S1)c1ccccc1C(c1ccc(Cl)cc1)=NN2c1ccccc1 (stereo not given)	.	0.95
COC(OC)c1ccnc(-c2ccc(OC(=O)c3ccccc3)cc2)n1	.	0.76
CC(=O)Nc1cccc(-c2nc(-c3ccccc3)nc3ccccc23)c1	.	0.16
O=C1c2ccccc2S(=O)(=O)N1CCSc1nncn1-c1ccccc1	-0.4	.
O=C(O)C1Cc2ccccc2CN1S(=O)(=O)c1ccccc1 (stereo not given)	0.8	.
CC1=NN(c2ccccc2)C(=O)CC1	.	0.2
CCC(Sc1nncn2c1cc1sccc12)C(=O)N1CCOCC1 (stereo not given)	-0.8	0.23
CCOC(=O)CSc1nc(C2CC2)cc(-c2ccc(Cl)cc2)c1C#N	.	1.2

A portion of the library; the hit share may differ from the screen's.
